Screens from PubChem.
Six1-Eya2 inh: Six1/Eya2 interaction inhibition. Q15475+O00167. AlphaScreen GST-Six1/His-Eya2 binding, biochemical; active compounds read low; control for the full effect not named in the record. activity change, % (no concentration beside the values). actives 0.56% (n = 360,000). AID 651725; in the data active = activity change below about -65%; inconclusive = about -30% to -65%; inactive = above about -30%; also: % is scaled to controls: 0 for no effect and ±100 for the full control effect
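Six1/Eya2 binding was read as AlphaScreen signal after compounds were pinned into GST-Six1 plus His-tagged Eya2 (5X stock 250/500 nM) in pH 8.0 Tris/NaCl/TCEP buffer, beads added, then incubated 1 h, 37 C, dark.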
PINK1 expr mod: changes PINK1 expression; PINK1 immunofluorescence, high-content cytometry, 24 h; Potency, µM (top dose mostly 76.6 µM), inactives show top-dose activation (PINK1 increase), usual class: activators; actives 0.2% (n = 410,000); active = well fitted activation curve with a large enough effect; inconclusive = small, poorly fitted or top-dose-only effect; inactive = flat fitted curve, though single readings scatter; cell line not stated here;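 also: potency is read from the fitted curve at half-maximal effect; % of control where 0% means no effect; nearly all actives have a fitted effect of over 65% in size; a mitochondrial uncoupler was the plate control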
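Compound titrations (5 concentrations, 24 h) on a stable cell line; DMSO and CCCP controls. Endpoint: fixed-cell PINK1 immunofluorescence with mitochondrial, cell and nuclear markers, scanned by microplate cytometer.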
TRPML1 ag: activates the human TRPML1 channel. Q9GZU1. TRPML1-expressing cells, Ca2+ dye fluorescence, FDSS; host cell line not named in the record; reference of the full effect not given here. activation, % (test concentration not listed). actives 0.12% (n = 410,000). AID 624414; in the data active = activation above about 50%; inconclusive = about 30% to 50%; inactive = below about 30%; also: 0% is about no effect; the text of the record puts the active cut at 80%
Target sequence (Q9GZU1 whole entry, looked up): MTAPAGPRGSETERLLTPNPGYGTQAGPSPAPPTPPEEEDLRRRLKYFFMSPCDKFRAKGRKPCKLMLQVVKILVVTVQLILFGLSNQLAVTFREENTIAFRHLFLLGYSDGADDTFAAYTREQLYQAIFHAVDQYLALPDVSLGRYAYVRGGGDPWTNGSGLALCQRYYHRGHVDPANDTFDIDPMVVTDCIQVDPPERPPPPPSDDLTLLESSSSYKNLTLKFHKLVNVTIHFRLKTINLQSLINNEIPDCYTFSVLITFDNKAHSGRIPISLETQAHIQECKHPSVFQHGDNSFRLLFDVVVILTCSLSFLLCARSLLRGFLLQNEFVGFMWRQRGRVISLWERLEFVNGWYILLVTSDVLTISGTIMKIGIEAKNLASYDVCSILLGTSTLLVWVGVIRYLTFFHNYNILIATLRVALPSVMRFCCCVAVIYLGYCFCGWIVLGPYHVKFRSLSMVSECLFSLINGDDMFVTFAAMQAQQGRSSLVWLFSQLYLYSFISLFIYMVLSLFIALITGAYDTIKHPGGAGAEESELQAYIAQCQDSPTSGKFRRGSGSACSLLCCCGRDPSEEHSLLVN
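TRPML1-DL cells, Tet-induced overnight (~16 h, 37 degrees C), loaded 45-90 min at room temperature with Ca8 no-wash calcium dye plus quencher. FDSS fluorescence: 10 s baseline, compound pin-transfer, 110 s agonist read, then EC80 54-4 (4uM final) and 110 s antagonist read.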
TRPML1 inh: blocks the human TRPML1 channel; Q9GZU1; TRPML1-inducible cells, Ca2+ dye fluorescence, FDSS; active compounds read low; inhibition of EC80 agonist-evoked calcium signal; activity change, negative = inhibition, % (concentration not given with the values); actives 0.02% (n = 390,000); in the data active means activity change below about -50%; inconclusive means about -30% to -50%; inactive means above about -30%;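 also: stimulus is agonist 54-4 at its EC80 concentration; % is scaled to controls: 0 for no effect and ±100 for the full control effect; the text of the record puts the active cut at -80%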
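Calcium fluorescence in TRPML1-DL cells induced overnight with Tet: a 110 s read after compound pin addition, then a 110 s antagonist read after challenge with 54-4 at 4 uM final (EC80).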
D2 ag: human D2 receptor agonism in beta-arrestin assay. P14416. AID 624465. actives 0.084% (n = 360,000). activation, % (no concentration beside the values). DiscoveRx PathHunter D2 beta-arrestin, luminescence, 90 min; 100% = 57 uM dopamine signal; in the data active = activation above about 40%; inconclusive = about 15% to 40%; inactive = below about 15%; also: compound concentration not given in the record; the text of the record calls up to 30% inactive
Target sequence (P14416 whole entry, looked up): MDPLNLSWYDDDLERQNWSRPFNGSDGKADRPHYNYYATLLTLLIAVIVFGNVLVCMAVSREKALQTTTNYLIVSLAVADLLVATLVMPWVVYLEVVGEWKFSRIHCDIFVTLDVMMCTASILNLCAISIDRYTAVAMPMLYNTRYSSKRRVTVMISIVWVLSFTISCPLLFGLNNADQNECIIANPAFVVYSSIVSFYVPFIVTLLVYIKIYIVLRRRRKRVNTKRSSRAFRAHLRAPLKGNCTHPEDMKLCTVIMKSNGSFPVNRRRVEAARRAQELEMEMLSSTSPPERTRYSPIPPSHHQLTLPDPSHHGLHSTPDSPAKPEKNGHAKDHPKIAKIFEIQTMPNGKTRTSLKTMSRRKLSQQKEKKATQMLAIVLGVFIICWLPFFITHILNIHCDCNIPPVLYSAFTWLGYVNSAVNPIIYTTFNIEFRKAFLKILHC
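Agonist mode: compounds alone added to overnight-plated D2 PathHunter cells for 90 min at 37 C, with 57 uM final dopamine (EC100) defining full response. Beta-arrestin recruitment detected by chemiluminescent reagent, read after 1 h at ambient temperature.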
D2 PAM: potentiates the human D2 dopamine receptor allosterically | P14416 | DiscoveRx D2 beta-arrestin cells, luminescence, 90 min; 100% = 57 uM dopamine signal | potentiation, % (test concentration not listed) | actives 0.23% (n = 360,000) | AID 624464; active = potentiation of 50% or more; inconclusive = 30% to 50%; inactive = 30% or less;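 also: compound concentration not given in the record; tested on top of an EC20 dose of dopamine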
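PathHunter beta-arrestin assay in DiscoveRx D2 cells. Compounds were added with an EC20 of dopamine (50 nM final) for 90 min at 37 deg C. Luminescence was read 1 h after detection reagent, with 57 uM dopamine as the EC100 control.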
Numbers without * were called inactive; ? = inconclusive; . = no result given; [ ] = dose if it differs, or a comment.

SMILES	Six1-Eya2 inh	PINK1 expr mod	TRPML1 ag	TRPML1 inh	D2 ag	D2 PAM
O=C(NC1CCCC1)C1CCC(CNS(=O)(=O)c2ccccc2)CC1 (stereo not given)	2	-0.8%	0.1	-13	-3.5	-7
CN1CCN(Cc2coc3c(Cl)cc(Cl)cc3c2=O)CC1	1	2.2%	-0.5	-15	-0.9	-6
CCn1c(-c2cc3c(C(F)(F)F)nn(C)c3s2)n[nH]c1=S	-7	-44%[inhibitor][38.3 µM]	-0.7	29	-3.3	-18
CC1CCCCC12NC(=O)N(CC(=O)Nc1ccc(S(=O)(=O)N3CCOCC3)cc1)C2=O (stereo not given)	0	-2.0%	-0.3	-1	0.9	-2
Cc1ccc(-c2csc3nc(SCC(N)=O)n(Cc4ccccc4)c(=O)c23)cc1	-1	0.4%	1.5	-22	-3.5	-6
C=CCOc1ccc(CNc2ccc3[nH]c(=O)[nH]c3c2)cc1OC	?	-0.5%	0.9	-3	7.2	9
COC(=O)CCCC(=O)Nc1ccc(Br)cc1	9	3.4%	0.0	-9	-0.7	-4
COc1ccc(S(=O)(=O)N(C)C[C@H]2Oc3ccc(NC(=O)Nc4c(C)noc4C)cc3C(=O)N([C@H](C)CO)C[C@@H]2C)cc1	1	4.9%	-0.8	-3	-0.8	-8
COC(=O)C1=C(C)N(Cc2ccc(OC)cc2)C(=O)/C1=C\c1ccco1	-14	3.5%	0.4	3	-1.3	-6
COCCn1c(SCC(=O)Nc2sc(C)c(C)c2C#N)nnc1C(C)C	-10	-0.6%	-1.0	3	-3.6	11
CCOC(=O)C1CCN(C(=O)CC2C(=O)N(Cc3ccccc3)C(C)c3nc4ccccc4n32)CC1 (stereo not given)	0	-0.1%[38.3 µM]	1.3	-13	-0.8	-7
Cc1ccc(NC(=O)c2ccc(NS(=O)(=O)c3ccc4[nH]c(=O)[nH]c4c3)cc2)nc1	-14	-0.8%	-0.2	-1	-4.0	-6
Cc1c(Cl)cccc1NC(=O)NC1CCCCC1	3	-0.7%	3.7	-3	-2.8	-15
CCCOc1ccc(CCc2n[nH]c(=S)n2Cc2ccccc2)cc1	-12	6.8%	4.0	37	1.3	13
COc1cccc(Cn2c(Cn3c(-c4cnccn4)nc4ccccc43)nc3ccccc32)c1	-8	0.6%	-0.3	.	.	.
OCCCN=C1CCCc2c1[nH]c1ccc(Cl)cc21	-2	0.3%	1.3	6	-3.0	-5
O=C(CSc1nc2nccnc2c(=O)n1Cc1cccs1)Nc1ccccc1	5	2.0%	1.6	9	-1.0	9
O=C(c1cnccn1)N(Cc1cccs1)C1(C(=O)NC2CCCCC2)CCCCC1	10	5.8%	1.3	10	7.2	-17
O=C(Nc1cc(C(F)(F)F)ccc1N1CCOCC1)c1cnccn1	-13	-0.9%	0.3	10	-0.2	-33
O=C(Nc1cc(Br)ccc1O)C1CC(c2ccccc2Cl)=NO1 (stereo not given)	-6	3.1%	-0.2	-4	5.5	2
O=C(O)CCNc1ccc(NCCC(=O)O)c2c1C(=O)c1ccccc1C2=O	-85*	0.8%	0.2	4	1.8	-13
Cc1cc(NC(=O)c2ccccc2-c2ccccc2)ccc1Br	10	14%	0.4	17	-2.5	-10
O=C(CSc1nc2ccccc2c(=O)n1-c1ccccc1)c1cccc([N+](=O)[O-])c1	0	8.3%	1.8	18	3.6	1
COC(=O)c1ccc(Cl)cc1NC(=O)NCCc1c(C)nn(C)c1C	.	-1.1%	-0.4	32	.	.
CCCNC(=S)Nc1ccccc1	1	0.8%	-0.1	14	5.3	-6
Other records follow:
SMILES	Six1-Eya2 inh	PINK1 expr mod	TRPML1 ag	TRPML1 inh	D2 ag	D2 PAM
O=S(=O)(NC1CC1)c1ccc(F)c(F)c1	-7	0.7%	-0.5	2	3.3	1
Nc1nonc1C(=O)NCCNCc1cccc(Cl)c1Cl	.	0.8%	-1.0	-9	.	.
CCN1CCN(S(=O)(=O)c2ccc(C(C)(C)C)cc2)CC1	-13	0.2%	0.3	-12	2.8	-7
COc1ccc(COC(=O)C2=C(C)NC(=O)NC2c2cc(Br)c(O)c(OC)c2)cc1 (stereo not given)	0	0.0%	0.2	20	-2.6	-9
COc1cc(C(c2c(O)nc(SC)[nH]c2=O)c2c(O)nc(SC)[nH]c2=O)cc(OC)c1OC	-1	2.3%	.	.	0.9	25
CCn1c(SCC(=O)Nc2c(C)n(C)n(-c3ccccc3)c2=O)nc2c1c(=O)n(C)c(=O)n2C	21	-1.4%	0.2	-2	-1.3	4
CCc1cccc(NC(=O)c2nnn(Cc3ccc(SC)cc3)c2N)c1	.	14%	4.9	-13	.	.
Cc1cnc(C(=O)Nc2nnc(C(C)C)s2)cn1	?	0.6%	-0.3	-27	-5.0	4
N#CC(c1ccccc1)c1cccc(Cl)n1 (stereo not given)	21	2.8%	0.7	0	-5.9	-1
O=C(CCCC(=O)Nc1cccnc1)Nc1cccnc1	-2	-0.4%	-1.4	-1	-0.4	1
CCCN1CNC(=S)N(c2ccccc2OC)C1	8	-2.1%	1.1	6	-2.4	-5
Cc1nc(NCCc2ccccc2)c2oc3ccccc3c2n1	-12	3.6%	1.5	17	-0.1	-2
O=C(N/N=C/c1cccs1)c1ccc2c(c1)OCO2	-7	-0.8%	-0.2	6	-4.2	-34
COc1cc(C2C=C(Nc3ccccc3)C(=O)N2c2ccccc2)ccc1O (stereo not given)	-7	-0.2%	0.0	6	7.1	-11
CNC(=O)C1CCN(S(=O)(=O)c2c(C)noc2/C=C/N(C)C)CC1	1	0.6%	-0.2	19	-7.4	-7
COc1cc(/C=C/C(=O)O)cc(S(=O)(=O)N2CCN(S(=O)(=O)c3ccc(Cl)cc3)CC2)c1OC	5	2.7%	0.3	4	3.7	0
CCCCCCCN1C/C=C\C(c2ccc(OC)cc2)N(Cc2ccc(F)cc2)C(=O)[C@H]1Cc1ccccc1 (stereo not given in full)	12	1.5%	1.1	45	-2.9	-7
CC(=O)Nc1ccc(NC(=O)C(C)OC(=O)c2ccccc2NS(=O)(=O)c2cccs2)cc1 (stereo not given)	1	-0.2%	0.1	-4	-1.4	-6
COc1cccc(C(=O)N2CCCc3ccccc32)c1OC	5	-0.1%	-0.8	-1	0.1	-10
Cc1c(C)c2cc(Cl)c(O)c(CN3CCCCC3)c2oc1=O	3	-4.4%	-0.4	7	-3.0	-5
[O-][n+]1ccccc1SC/C=C/c1ccccc1	0	1.6%	-0.3	-5	-4.0	-1
Cc1ccc(CNC(=O)CSCc2ccccc2C)cc1	.	-0.3%	1.7	-20	.	.
CCOC(=O)N1CCc2c(sc(NC(C)=O)c2C(N)=O)C1	-10	0.8%	-0.6	20	0.9	0
CC(C)c1ccc(OCC(=O)N2CCc3ccccc3C2)cc1	18	3.6%	1.1	12	-6.5	-5
CCOc1ccc(N2C(=O)CC(NCC#N)C2=O)cc1 (stereo not given)	0	-0.9%	0.7	-3	1.0	-3

Some of the entries so far, in CSV form.
molecule,Six1-Eya2 inh,PINK1 expr mod,TRPML1 ag,TRPML1 inh,D2 ag,D2 PAM
CCCNC(=S)Nc1ccccc1,1,0.8%,-0.1,14,5.3,-6
O=S(=O)(NC1CC1)c1ccc(F)c(F)c1,-7,0.7%,-0.5,2,3.3,1
Nc1nonc1C(=O)NCCNCc1cccc(Cl)c1Cl,.,0.8%,-1.0,-9,.,.
CCN1CCN(S(=O)(=O)c2ccc(C(C)(C)C)cc2)CC1,-13,0.2%,0.3,-12,2.8,-7
COc1ccc(COC(=O)C2=C(C)NC(=O)NC2c2cc(Br)c(O)c(OC)c2)cc1 (stereo not given),0,0.0%,0.2,20,-2.6,-9

Additional compounds:
SMILES	Six1-Eya2 inh	PINK1 expr mod	TRPML1 ag	TRPML1 inh	D2 ag	D2 PAM
COc1ccc(S(=O)(=O)N2CCC(CN3C(=O)c4cccc5cccc(c45)C3=O)CC2)cc1	-7	2.2%	0.8	21	3.0	-2
COC(=O)CCCC(=O)N1CCC(n2nccc2NC(=O)CCOc2ccccc2)CC1	1	4.6%	0.3	9	-0.9	8
C=CCc1cc(Cl)ccc1OCCCNC(C)C	15	-2.3%	-0.2	11	-2.6	-15
Nc1ncnc(Nc2cc(C(F)(F)F)cc(C(F)(F)F)c2)n1	16	0.9%	3.0	13	-3.1	-1
N#Cc1ccc(C(=O)OCC(=O)Nc2ccc(S(N)(=O)=O)cc2)cc1	0	-1.1%	-1.0	7	1.1	0
Cc1cc(F)ccc1NC(=O)c1csc2c1CCC(C)C2 (stereo not given)	.	4.1%	-0.5	-4	.	.
O=C(CSc1ncc2c(n1)-c1cc(Cl)ccc1N(Cc1ccccc1)S2(=O)=O)Nc1ccc(F)cc1F	.	2.1%	0.8	24	.	.
CCOC(=O)N1CCN(C(=O)COc2cc(C)c(Cl)c(C)c2)CC1	14	-0.1%	0.1	5	-1.8	-55
COc1ccc(C(=O)CN2C(=O)NC3(CCCc4ccccc43)C2=O)cc1OC (stereo not given)	0	-0.2%	0.7	-6	-4.2	-2
COc1ccc(/C=C/C(=O)Nc2nc(N)n(-c3ccccc3)n2)cc1	-4	-1.0%	1.2	14	-1.6	-16
Cc1[nH]nc2cn[nH]c12	-3	?	-0.1	13	1.7	-5
O=C(NCCCN1CCOCC1)C(=O)N/N=C/c1ccccc1O	-75*	-1.2%	0.6	17	-2.6	-3
CC1CCCCC1NC(=O)C1CCCN(S(=O)(=O)c2ccc(-n3cnnn3)cc2)C1 (stereo not given)	-3	7.7%	-1.0	43	-3.1	0
Cc1cnc(NC(=O)COc2ccccc2Cl)s1	0	5.2%[38.3 µM]	0.9	4	-1.1	-5
CC(/C=N/Nc1nnc(C)c(=O)[nH]1)=C\c1ccccc1	-7	-1.9%[38.3 µM]	1.4	25	-1.9	-4
COc1ccccc1OCC(=O)Nc1ccc(N2CCCCC2)cc1	?	2.9%	0.3	-8	-1.9	-6
COc1ccc(NC(=O)CSc2nccn2-c2ccccc2)cc1	0	0.2%	2.2	11	-8.2	-14
CCSc1ccccc1C(=O)N1CCC2(CC1)CC(=O)c1ccccc1O2	6	-2.4%	0.5	8	5.4	-11
CCc1nn(C(C)C(=O)NCCc2ccccc2)c(=O)c2cc3occc3n12 (stereo not given)	-4	1.0%	-1.1	8	-5.2	-11
O=C(NCCNCc1ccccn1)c1ccco1	?	1.6%	-0.4	-6	-2.8	4
CCCCCOC(=O)Nc1ccc(S(=O)(=O)Nc2cccc([N+](=O)[O-])c2)cc1	1	6.9%	-0.5	14	-7.2	-10
COc1ccc(C2=CC(=O)C[C@H](c3ccc(F)cc3)C2)c(OC)c1	-3	5.1%	1.7	6	-4.5	-2
CCOC(=O)COc1cccc2c(=O)n(CC(=O)NCc3ccc(F)cc3)ccc12	2	10%	-0.5	11	-3.7	-13
CC(C)CN1C(=O)C(=O)N(CC(=O)c2ccc3c(c2)CCCC3)C1=O	1	1.4%	0.6	10	-0.5	6
CC(C)Cn1cc(NC(=O)N2CCN(c3ccc(F)cc3)CC2)c2ccccc2c1=O	.	-4.6%	1.1	-12	.	.
CC(C)CC(=O)NS(=O)(=O)c1ccc(NC(=O)c2ccco2)cc1	-4	-0.6%	-0.3	-15	-1.9	-3
